gsp antagonist: antagonists of gsp mutant (McCune-Albright syndrome); gsp-mutant cells, cAMP HTRF, 30 min; control for the full effect not named in the record; Potency, µM (doses to about 76.9 µM), inactives show at the highest dose activity change, negative = inhibition, hits mostly inhibitors; actives 0.4% (n = 340,000); AID 624288; active = falling curve of any shape with a large fitted effect; inconclusive = falling curve, mostly with a smaller effect; inactive = flat or rising curve; cell line not stated here;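 also: intracellular cAMP measured with PDE inhibitor Ro 20-1724 present during compound exposure; potency is read from the fitted curve at half-maximal effect; % is scaled to controls: 0 for no effect and ±100 for the full control effect; nearly all actives have a fitted effect of over 65% in size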
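Cells, 2000/well, grown 16–24 h in DMEM 10% FBS with 0.5 mg/ml G418, then compounds plus […] (300 uM addition stock), 30 min at 37C. cAMP read by HTRF (cAMP-d2 and anti-cAMP antibody-K in lysis buffer) after 30 min RT.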
TRPML1 blocker: human mucolipin-1 channel inhibition. TRPML1-inducible cells, Ca2+ dye fluorescence, FDSS; stronger effect = lower value; inhibition of EC80 agonist-evoked calcium signal. activity change, negative = inhibition, % (concentration not given with the values). actives 0.02% (n = 390,000). AID 624415; in the data active means activity change below about -50%; inconclusive means about -30% to -50%; inactive means above about -30%;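 also: stimulus is agonist 54-4 at its EC80 concentration; % is scaled to controls: 0 for no effect and ±100 for the full control effect; compound concentration not given in the record; the text of the record puts the active cut at -80%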
Target sequence (Q9GZU1 whole entry, looked up): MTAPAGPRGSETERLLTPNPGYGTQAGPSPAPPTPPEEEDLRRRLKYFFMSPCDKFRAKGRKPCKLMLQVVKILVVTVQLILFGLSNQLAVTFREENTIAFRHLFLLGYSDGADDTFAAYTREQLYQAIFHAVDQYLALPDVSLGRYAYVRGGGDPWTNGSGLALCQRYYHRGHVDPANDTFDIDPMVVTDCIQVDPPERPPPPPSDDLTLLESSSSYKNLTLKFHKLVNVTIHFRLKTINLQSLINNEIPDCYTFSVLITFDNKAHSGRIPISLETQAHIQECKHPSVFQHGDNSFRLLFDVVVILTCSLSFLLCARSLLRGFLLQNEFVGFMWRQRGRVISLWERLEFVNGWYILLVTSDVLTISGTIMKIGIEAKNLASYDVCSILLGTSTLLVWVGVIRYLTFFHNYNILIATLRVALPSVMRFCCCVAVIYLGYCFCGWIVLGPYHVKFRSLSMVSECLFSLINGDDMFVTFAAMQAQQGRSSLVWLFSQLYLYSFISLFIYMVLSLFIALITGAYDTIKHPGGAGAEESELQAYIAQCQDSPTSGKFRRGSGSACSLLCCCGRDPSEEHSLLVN
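Calcium fluorescence in TRPML1-DL cells induced overnight with Tet: a 110 s read after compound pin addition, then a 110 s antagonist read after challenge with 54-4 at 4 uM final (EC80).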
Sfp PPTase inh: blocks B. subtilis Sfp PPTase activity; Biochemical Sfp PPTase activity, qHTS; Potency, µM, without a hit: max response, negative = inhibition, most hits filed as inhibitors; actives 3.5% (n = 310,000); active = well fitted inhibition curve with a large enough effect; inconclusive = small, poorly fitted or top-dose-only effect, or another doubt; inactive = no such curve, though single readings can be large or run the other way;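 also: the enzyme is Sfp with the accession as filed and its product quenches rhodamine fluorescence; potency is read from the fitted curve at half-maximal effect; 0% = enzyme reaction without inhibitor and -100% = no enzyme wells; top concentration of the series not given in the record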
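After 15 min at room temperature with compound, 15 nM Sfp received 5 uM rhodamine-CoA plus 12.5 uM BHQ-2-ybbR (50 mM Hepes pH 7.6, 10 mM MgCl2). Rate came from the fluorescence difference over 30 min, ex 525/em 598 nm.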
Menin MLL FP FL: inhibitors of human menin-MLL interaction, wild-type MLL peptide. Fluorescence polarization, fluorescein-MLL peptide displacement from menin. FP activity change, % at 61.4 µM. 290,000 tested, under 10 active. AID 1766; inconclusive = falling polarisation curve, or a change in total fluorescence; inactive = total fluorescence flat and polarisation flat or rising; no compound was filed as active; the % refers to the polarisation; negative = inhibition;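 also: % of control where 0% means no effect; inhibitors lower the polarisation; unlabelled MLL peptide was the positive control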
gsp agonist: activates gsp, the McCune-Albright syndrome mutation | gsp mutant cells, cAMP HTRF, 30 min; control for the full effect not named in the record | Potency, µM (series often up to 76.9 µM), for the others: top-dose activation (cAMP increase), hits mostly activators | actives 0.13% (n = 340,000); active = well fitted activation curve with a large enough effect; inconclusive = small, poorly fitted or top-dose-only effect, or another doubt; inactive = no such curve, though single readings can be large or run the other way; cell line not stated here;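 also: phosphodiesterase inhibitor Ro 20-1724 added with compounds to block cAMP breakdown; potency is read from the fitted curve at half-maximal effect; nearly all actives have a fitted effect of over 60% in size; about a fifth of the inactives were tested at one dose only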
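Cells in DMEM/10% FBS with G418 were pretreated with compounds in DMSO plus […] (300 uM stock) for 30 min at 37C. cAMP was measured by HTRF (cAMP-d2 plus anti-cAMP antibody-K) after 30 min at room temperature.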
ClpP mod: qHTS Assay for Activators of ClpP | actives 1.9% (n = 340,000) | Potency, µM (top dose mostly 57.5 µM), without a hit: at the highest dose activity change, negative = active | purified B. subtilis ClpP, FRET peptide cleavage, 20 min | ATP-dependent Clp protease proteolytic subunit (Bacillus subtilis (strain 168)), P80244; active = well fitted falling curve with a large enough effect; inconclusive = small, poorly fitted or top-dose-only effect; inactive = no such curve, though single readings can be large or run the other way; also: potency is read from the fitted curve at half-maximal effect; the source files actives as falling curves though it sought activators and does not explain the sign; nearly all actives have a fitted effect of over 65% in size; many hits overshoot -100%
Target sequence (P80244 whole entry, looked up): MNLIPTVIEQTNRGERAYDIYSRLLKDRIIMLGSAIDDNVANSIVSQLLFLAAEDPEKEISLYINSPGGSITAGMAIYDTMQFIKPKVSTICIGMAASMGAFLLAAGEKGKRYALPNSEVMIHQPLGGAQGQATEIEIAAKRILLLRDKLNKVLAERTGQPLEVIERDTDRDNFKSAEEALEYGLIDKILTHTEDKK
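ClpP 10 microg/mL final, pH 8 Tris/KCl buffer with BSA, glycerol, Tween-20; compound pinned in; FRET-FV substrate; RT 20 min; Ex320/Em430; ΔFRET vs ADEP 5.8 microM, DMSO, no enzyme.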
TRPV1 PAM: enhances activation of the human vanilloid receptor TRPV1 | Q8NER1 | TRPV1-expressing cells, Fluo-8 calcium influx, capsaicin EC20 potentiation; host cell line not named in the record; control for the full effect not named in the record | potentiation, % at 8.33 µM | actives 0.02% (n = 320,000) | AID 540277; active means potentiation above 80%; inconclusive means 30% to 80%; inactive means below 30%; also: 0% is about no effect
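TRPV1-expressing cells were cultured overnight at 35.5C and loaded with Fluo-8 calcium dye for 40 to 90 min at room temperature. After a 10 s baseline, compound was added and calcium influx was read kinetically for 3 min (ex 480/em 520 nm).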
* = called active by the depositor; ? = inconclusive; nt = not tested or not shown; & = joins results of further samples; [ ] = another dose, or the depositor's remark.

Values in the order: gsp antagonist	TRPML1 blocker	Sfp PPTase inh	Menin MLL FP FL	gsp agonist	ClpP mod	TRPV1 PAM
CCn1c2ccccc2c2nnc(SCc3ccccc3)nc21
 : -6.3%	-11.2	-12.0%	1.6	16.3%	-5.1%	-3.6
Cc1nn(S(=O)(=O)c2ccccc2)c(C)c1S(=O)(=O)N1CCC(C)CC1
 : 15.4%	1.2&0.6	20.9%	3.8	-4.5%	-0.6%&0.7%	1.3
O=C(Nc1ccc(C(=O)N2CCCC2)cc1)C1CCCCC1
 : 1.2%	17.6	nt	nt	nt	1.1%	nt
CCOc1ccc(NC(=O)C2CC(=O)N(c3ccccc3F)C2)cc1 (stereo not given)
 : 3.4%	-10.7	17.5%	-2.5	-11.3%	nt	-0.3
CC(C(=O)Nc1nc(-c2ccc(F)cc2)cs1)N1C(=O)C2CC=CCC2C1=O (stereo not given)
 : ?	5.0	nt	nt	-20.5%	-3.6%	0.8
COC(=O)CSc1nc2c(c(=O)[nH]c(=O)n2C)n1CCC(C)C
 : 8.7%	11.7	16.7%	1.4	-12.1%	-0.8%	-1.6
CSc1ccc(Cl)c(C(=O)N2CCOc3ccccc32)c1
 : ?	-6.6	5.3%	3.1	-49.0%[inhibitor]	1.2%	2.5
CCn1ncc(S(=O)(=O)NCc2ccco2)c1C
 : 8.4%	1.9	10.2%	nt	-4.8%	0.4%	9.9
COc1cc(CC(C#N)(CO)c2nc3ccccc3[nH]2)ccc1OC(F)F (stereo not given)
 : -14.4%	0.2	9.3%	0.7	18.7%[15.4 µM]	-0.4%	-22.5
COc1ccc(-c2nnc(-c3ccc(N(C)C)cc3)o2)cc1
 : -1.7%	-2.6	13.0%	0.7	23.6%	?	-2.7
O=C(NC(=S)N1CCCCC1CO)C12CC3CC(CC(C3)C1)C2 (stereo not given)
 : -14.2%	nt	-19.6%	-1.0	?	0.2%	-8.0
CC(=O)Nc1ccc(OCC(O)CN2CCN(Cc3ccccc3)CC2)cc1 (stereo not given)
 : 9.0%	-13.3	-6.6%	0.2	-14.6%	1.0%	-5.9
O=C(NC1(C(F)(F)F)NC(=O)N(Cc2cccnc2)C1=O)c1cccs1 (stereo not given)
 : 11.9%	0.4	14.1%	0.0	6.5%	-0.8%	2.8
CCNc1nc(SC(C)C(=O)Nc2ccccc2)nc(N(C)C)n1 (stereo not given)
 : -7.1%	42.4	15.8%	-1.9	4.6%	nt	-10.5
CNC(=S)Nc1sc2c(c1C(=O)OC)CCC2
 : -8.8%	-1.8	24.4%	-2.1	?	nt	28.5
COc1ccc(C(=O)NC(=S)Nc2nc(-c3ccc(OC)c(Br)c3)cs2)cc1Br
 : 16.7%	31.0	-2.4%	nt	?	-0.1%	9.4
COc1cc(NC(=O)c2ccc(-c3csc(C)n3)cc2)c(OC)cc1Cl
 : -22.4%	-10.2	9.2%	-0.4	-61.5%[inhibitor]	nt	?
CC(=O)c1cccc(NC(=O)NCCS(C)=O)c1 (stereo not given)
 : 13.4%	5.8	22.0%	-0.4	?	-3.4%	5.9
CCOc1ccc(S(=O)(=O)NCCC(=O)Nc2ccncc2)cc1
 : 6.5%	16.4	nt	nt	-20.1%	-6.4%	?
CCN(C(=O)COC(=O)c1ccc(N2C(=O)c3ccccc3C2=O)cc1)C1CCS(=O)(=O)C1 (stereo not given)
 : 9.9%	-7.5	14.0%	-3.0	-3.2%	nt	-0.4
Cc1ccc(C(=O)Nc2ccc3c(c2)ncn3C)cc1
 : -3.8%	-1.7	19.5%	-0.4	-2.4%	-0.6%	1.4
COc1cc(S(=O)(=O)N2CCCN(C)CC2)ccc1NC(C)=O
 : 10.6%	0.4	10.9%	nt	0.2%	nt	7.0
Cc1cc(-c2ccccc2)c(C#N)c(=S)[nH]1
 : 0.5%	-19.9	28.2µM*	2.5	-36.7%	-4.1%	-21.7
O=C(Cc1ccccc1Cl)Nc1cccc(S(=O)(=O)N2CCCCCC2)c1
 : -7.9%	12.8	nt	nt	?	-0.4%	-0.9
C=CCOc1ccc(C=Nc2ccc(OC)cc2)c(O)c1
 : -12.6%	-2.6	11.5%	1.7	-38.2%[inhibitor]	nt	8.1
COc1ccc2nc(SCC(=O)Nc3ccc4c(c3)OCCO4)[nH]c2c1
 : -3.9%	8.5	6.9%	3.7	-8.0%	1.6%	-1.3
COc1ccc(C(=O)C(C)OC(=O)c2cccc(S(=O)(=O)Nc3c(C)n(C)n(-c4ccccc4)c3=O)c2)cc1 (stereo not given)
 : -35.6%	-5.8	nt	nt	-0.1%[15.4 µM]	0.7%	nt
COc1ccccc1CNC(=O)C(NC(=O)c1ccccc1C)C(C)C (stereo not given)
 : -1.6%	-6.1	13.0%	0.0	15.4%[15.4 µM]	nt	-5.4
Cc1ccc2c(CC(=O)N3CCN(S(=O)(=O)c4ccccc4)CC3)coc2c1
 : -2.8%	-8.1	nt	nt	-0.8%[15.4 µM]	-0.3%	-20.5
COc1ccc(OC)c(NC(=O)C2CC2c2ccccc2)c1 (stereo not given)
 : -1.0%	nt	-3.4%	-4.4	?	-2.3%	-9.1
Cc1ccc(-c2cc(C(=O)N3CCCC3)no2)cc1
 : -21.9%	13.1	-1.3%	1.1	-10.8%	-0.6%	8.8
COC(=O)c1sccc1NC(=O)c1ccncc1
 : 7.7%	20.9	-4.0%	-1.8	5.4%[15.4 µM]	2.3%	-1.1
Cc1c(CNCCc2ccc(Cl)cc2)c(C(=O)O)c(C)n1Cc1ccccc1
 : -12.0%	-8.7	13.8%	-1.2	-87.9%[inhibitor]	1.0%	-5.3
Cc1ccc(S(=O)(=O)N[C@H](C(=O)OCn2nnc3ccccc3c2=O)C(C)C)cc1
 : -4.6%	8.0	3.3%	-0.3	-29.7%	0.5%	1.7
COc1ccc(-n2nc(C(=O)NCC(=O)NCC3COc4ccccc4O3)c3ccccc3c2=O)cc1OC (stereo not given)
 : -13.9%	-7.4	16.2%	0.8	-1.0%	0.5%	9.8
CCCCCCSc1nsc(NC(=O)CC(C)C)n1
 : 1.9%	12.5	11.5%	0.1	-8.0%	nt	-5.8
Cc1cc(CN(C)C(=O)CC2C(=O)NCCN2CC(c2ccccc2)c2ccccc2)on1 (stereo not given)
 : 8.2%	-7.8	17.6%	-3.2	-5.4%[15.4 µM]	nt	-19.5
COC(=O)CN(C#N)c1nc(N(C)C)nc(N(C)C)n1
 : nt	-13.5	16.7%	-4.4	-5.7%[15.4 µM]	nt	1.0
Cc1ccc(SCC(=O)Nc2cccnc2)cc1
 : -0.4%	8.3	nt	nt	-23.1%	-1.8%	nt
Cc1ccc2cc(CN(Cc3cccs3)Cc3nnnn3CC3CCCO3)c(=O)[nH]c2c1 (stereo not given)
 : -18.8%	12.8	-13.9%	-0.1	-0.2%	-5.0%	0.9
Nc1nc(N)nc(-c2ccccn2)n1
 : 10.8%	-3.3	-7.9%	3.5	0.0%	0.9%	-1.7
O=C(CSc1n[nH]c(-c2ccc(S(=O)(=O)NC3CCCCC3)cc2)n1)N1CCCC1
 : -24.2%	4.8	9.0%	0.3	0.6%	1.2%	6.3
CCC(C)c1ccc(S(=O)(=O)N2CC(=O)Nc3ccccc32)cc1 (stereo not given)
 : -15.4%	33.4	10.0%	9.2	-12.0%	1.6%	5.9
CCn1c2ccccc2c2cc(NC(=O)CSc3nccc(=O)[nH]3)ccc21
 : -4.3%	2.9	13.4%	2.3	16.9%[15.4 µM]	0.4%	13.3
COc1ccc2c(c1OC)C(=O)N1c3ccccc3SC21 (stereo not given)
 : -14.8%	13.0	3.3%	0.8	19.0%	?	20.5
O=C(c1ccc(CN2CCOCC2)cc1)N1CCN(Cc2ccccc2)CC1
 : 15.3%	-4.1	-4.9%	1.1	6.1%	1.7%	-5.2
Cn1nc(C(=O)Nc2ccccc2)c2c1-c1ccccc1S(=O)(=O)C2
 : -0.9%	17.3	32.3%[activator]	nt	-5.6%	1.2%	7.0
CC1CN(CC(=O)Nc2cccc(C(=O)Nc3cccc(C(F)(F)F)c3)c2)CC(C)O1 (stereo not given)
 : -10.5%	3.4	5.7%	5.5	?	-1.6%	1.3
CC[C@]12c3[nH]c4ccc(OC)cc4c3CCN1C(=O)C(CC(=O)NC/C=C(\C)CCC=C(C)C)C[C@@H]2C(=O)N1CCN(C(=O)C2CC2)CC1 (stereo not given in full)
 : -8.0%	-17.1	nt	nt	nt	-3.2%	nt
COc1ccc(OC)c(CCNC(=O)Cc2ccc(NC(=O)C3=C(C)OCCS3)cc2)c1
 : nt	-0.3	nt	nt	-19.9%	-0.9%	nt
COc1cc(O)cc2occ(-c3ccc(O)cc3)c(=O)c12
 : 0.1%	nt	3.1%	0.5	nt	-14.6%	9.8
COc1ccccc1CNC(=O)c1c(O)c2cc(OC)c(OC)cc2[nH]c1=O
 : 4.1%	0.0	6.1%	1.2	1.8%	?	11.2
CC(NC(=O)CN1C(=O)NC2(CCCCCC2)C1=O)c1ccccc1Cl (stereo not given)
 : 6.2%	36.5	nt	nt	3.3%	-0.9%	8.4
Cc1cc(C(=O)COC(=O)c2ccc([N+](=O)[O-])o2)c(C)n1CC1CCCO1 (stereo not given)
 : 3.9%	3.6	-3.0%	-1.9	2.5%[15.4 µM]	-0.3%	9.9
CSc1nc(Cc2ccccc2)nc2ccccc12
 : -0.5%	7.0	11.2%	3.8	?	1.5%	-5.0
COC(=O)CCN1CCC(C(N)=O)CC1
 : 0.7%	0.3	25.8%	3.1	-1.3%	1.7%	-5.6
Nc1nnc(CC(=O)N/N=C/c2ccccc2OCc2ccccc2F)s1
 : -15.4%	3.0	14.6%	2.5	-0.6%[15.4 µM]	nt	3.5
O=C(NCC1CCCO1)c1cc(S(=O)(=O)N2CCOCC2)ccc1Cl (stereo not given)
 : 6.8%	-18.6	13.7%	-11.2	-3.2%	1.9%	3.1
Cc1nnc(SCC(=O)NC2CCCCC2)n1-c1ccccc1
 : nt	2.3	nt	nt	-64.3%[inhibitor]	-1.7%	nt
O=C1NC(=O)C2(CCC(C(=O)O)C2)N1 (stereo not given)
 : 2.6%	5.1	10.9%	0.5	?	-25.2%	3.9

High-throughput results: PubChem, National Center for Advancing Translational Sciences (NCATS)
